# High-throughput results deposited in PubChem by Fisher Drug Discovery Resource Center.
# NPYLR7 agonist: activates Aedes aegypti NPYLR7 receptor. HEK293T NPYLR7/Galpha15, GCaMP6s calcium fluorescence. activation, % at 10 µM. hit rate 0.15% among 270,000. AID 1259423; in the data active means activation above about 40%;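 further: 0% = vehicle and 100% = reference agonist at the receptor; some compounds past the cut are filed as inactive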
# NPYLR7 agonist max-min: further read-out of NPYLR7 agonist, marked with its call; activation, %; measured here: Max-Min RFU normalised activation; some inactives read as strong as hits;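 span of the calcium signal over five minutes; 0% = vehicle and 100% = native peptide agonist; compound fluorescence can raise it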
# The depositor's hits bear a star; & = joins results of further samples.
SMILES,NPYLR7 agonist,NPYLR7 agonist max-min
Cc1cccc(C(=O)N2CCN(c3ncccc3C(=O)NCc3ccc4c(c3)OCO4)CC2)c1C,9.1,-7.1
O=C(c1cc(Cn2cnc3ccccc32)[nH]n1)N1CCC1c1ccc(F)cc1 (stereo not given),6.0,0.6
CCOc1ccc(/C=N\Nc2nc(-c3ccc(OC)c(OC)c3)cs2)cc1,-2.7,-3.9
CCOC(=O)C1CCN(C(=O)c2cc(-c3ccccc3F)nn2-c2ccc(Cl)c(Cl)c2)CC1,-4.5,6.0
COc1ccc(CN2CC(OCc3ccncc3)CN(C(=O)Cc3cccnc3)CC2=O)cc1 (stereo not given),15.8,-0.6
COc1cccc(C(CN2CCN(S(=O)(=O)c3c(C)nn(C)c3Cl)CC2)OCc2ccc(C#N)cc2)c1 (stereo not given),29.6,18.9
CCCCN(C)S(=O)(=O)c1ccc2c(c1)nc(SCc1ccc(Cl)cc1)n2C1CCCC1,-0.1,-2.9
CC1COC(c2ccccc2)C(C)N1C(=O)CCN1C(=O)CCC1=O (stereo not given),-11.9,-14.1
O=S(=O)(c1ccc(F)c(F)c1F)N1CCN(C(=S)NC2CC3CCC2C3)CC1 (stereo not given),-1.9,-0.3
CCCS(=O)(=O)c1c(S(=O)(=O)CCC)c2cnccn2c1C(=O)c1ccc(Cl)cc1,-2.5,-4.7
O=C(NCc1cccnc1)C1COC2(CCCCC2)N1C(=O)c1ccco1 (stereo not given),-1.6,8.8
COc1ccc(C2Nc3ccccc3C(=O)N2c2ccc(F)cc2)cc1CSc1ccccn1 (stereo not given),-10.0,-10.6
COCCCNC(=O)c1ccc(C)c(Oc2nc(Cc3cccc(OC)c3)ns2)c1,-5.4,-4.8
CN(Cc1ccccc1)C(=O)[C@H](Cc1ccc2ccccc2c1)NC(=O)[C@@H]1C[C@@H](O)CN1C(=O)c1cn(C)c2ccccc12,-10.4,-12.7
CCOC(=O)C1(Cc2ccccc2Cl)CCN(Cc2ccccn2)CC1,2.8,5.6
O=C(c1cc(-c2cccs2)nn1-c1ccccc1Cl)N1CCN(C/C=C/c2ccccc2)CC1,-1.5,12.8
Cc1cc(C)c2sc(NC(=O)c3ccc(S(=O)(=O)N4CCc5ccccc5C4)cc3)nc2c1,1.8,3.1
COC(=O)[C@@H]1C[C@@H](N(C)C)CN1S(=O)(=O)c1c(C)ccc2nsnc12,0.0,-0.8
COc1cccc(Nc2nc(NCC3CCCO3)nc3c2cnn3-c2ccccc2)c1 (stereo not given),2.1,0.4
COc1ccc(C2c3cc(OC)c(OC)cc3Cc3c4cc(OC)c(OC)cc4cc[n+]32)cc1OC (stereo not given),3.4,4.0
O=S(=O)(NCCCNS(=O)(=O)c1ccc(Cl)cc1)c1ccc(Cl)cc1,-8.5,-8.9
COc1cccc(-c2nnc(SCc3ccc(C(=O)N4CCCC4)cc3)n2-c2ccc(F)cc2)c1,24.3,32.1
CCOC(=O)C1CCCN(C(=O)c2ccc(Nc3c(OCC)cnn(Cc4ccccc4)c3=O)cc2)C1 (stereo not given),-10.6,-10.1
Cc1ccc(NC(=O)c2sc(=O)n(Cc3cccc(F)c3)c2C)cc1,13.5,9.3
O=C(CCn1ccc(=O)[nH]c1=O)Nc1ccc2c(c1)CCC(=O)N2,-2.1,-3.7
Cc1ccnc(CC(C)N(C)C(=O)C2c3ccccc3-c3ccccc32)c1 (stereo not given),0.8,-2.6
O=C(c1cc(COc2ccccc2)[nH]n1)N(Cc1cccnc1)C1CC1,-0.5,-1.9
O=C1C=C(NCCN2CCOCC2)CC(c2ccco2)C1 (stereo not given),7.9,3.5
O=C(c1ccoc1)N1CCC2(CCCN(Cc3ccc(F)cc3)C2)C1 (stereo not given),9.0,2.1
Cc1nc(CSc2nnnn2C2CCOCC2)sc1C,-6.5,46.6
Cc1nc(-c2cccnc2)nc(NCC(C)C#N)c1C (stereo not given),9.6,4.1
COC(=O)c1ccccc1NC(=O)CSc1nnnn1C1CCCC1,-2.7,-5.0
CCOC(=O)c1ccc2c(c1)nc(SCc1cccc([N+](=O)[O-])c1)n2CCc1ccc(OC)cc1,9.1,5.0
O=C(CSCc1ccccc1Cl)N(Cc1cccnc1)C1CC1,-0.6,-8.9
Cn1ccc(NC(=O)C2CCCN2C(=O)c2ccc(Cl)c(Cl)c2)n1 (stereo not given),-0.2,-1.6
NCC(=O)Nc1ccc(-c2cccc3ccsc23)cc1F,0.8,7.8
COCCN=c1scc(-c2ccc(Cl)c(Cl)c2)n1N=Cc1ccc2c(c1)OCCO2,-8.1,-9.7
Cc1cc(NC(=O)NC2C3CCC(C3)C2CO)no1 (stereo not given),-12.3,-13.0
CCOC(=O)c1cc(-c2cccc(NC(=O)C3CCCCC3)c2)n(-c2ccc(F)cc2)n1,-5.6,-3.4
Cc1ccc(N2C(=O)C(c3c(C)[nH]n(-c4cccc(Cl)c4)c3=O)=C(N3CCOCC3)C2=O)cc1,7.6&9.2,6.4&9.5
Cc1ccsc1CN(Cc1ccc2c(c1)OCO2)C(=O)CN(CCN1CCOCC1)S(=O)(=O)c1ccccc1,13.3,11.1
O=C(Nc1ccc(-c2ccco2)cc1)C1CCCN(C(=O)CCc2cccs2)C1 (stereo not given),-3.1,-5.0
COc1ccc(OCC(=O)N=Nc2c(O)[nH]c3ccc([N+](=O)[O-])cc23)cc1,12.1,14.4
CC(=O)c1cccc(NCC(=O)N2CCSc3ccccc32)c1,-3.2,-2.8
COc1cccc(CN2CCN(Cc3nc(-c4ccc(OC)c(C)c4)oc3C)CC2=O)c1,-0.2,-0.9

# Profiles from above. Order of values: NPYLR7 agonist | NPYLR7 agonist max-min
# Cc1cc(NC(=O)NC2C3CCC(C3)C2CO)no1 (stereo not given) reads -12.3 | -13.0
# O=C(CSCc1ccccc1Cl)N(Cc1cccnc1)C1CC1 reads -0.6 | -8.9

# (continued)
SMILES,NPYLR7 agonist,NPYLR7 agonist max-min
CCCC(C)C(=O)N1CCc2cc(OC)c(OC)cc2C1c1ccccc1Cl (stereo not given),7.6,-0.8
CCN1CCN(Cc2nc3c(c(=O)n(C)c(=O)n3C)n2CCN2CCOCC2)CC1,1.6,30.9
CSC1=NCCN1C(=O)CCC(=O)c1ccc(F)cc1F,4.1,3.7
Cc1c(CC(=O)N2CCC(C(N)=O)CC2)c(=O)oc2c(C)c(O)ccc12,-10.5,-18.9
COc1ccc(NC(=O)Cn2nc(SC)c(S(=O)(=O)c3ccc(F)cc3)c2N)cc1Cl,-17.6,-22.3
COc1cc(C=NOCc2cc([N+](=O)[O-])cc3c2OCOC3)ccc1OC(F)F,3.6,11.0
Cc1ccc(NC(=O)N(CC(=O)N(CCc2ccccc2)Cc2ccc(C)o2)C2CC2)cc1,1.8,11.7
CCOCCn1nc(C)cc1C(=O)N1CCCC2(CNC(=O)O2)C1 (stereo not given),3.2,3.0
CC1(C)Cc2cc(CNC(=O)CC3C(=O)NCCN3C3CCCC3)ccc2O1 (stereo not given),-4.8,-6.4
O=C(NCC1CCCO1)c1ccccc1N1CCC(NC(=O)C2CCCC2)CC1 (stereo not given),-1.1,3.2
CC1(C)CC(NC(=O)CCc2nnc(Cc3cccc(C(F)(F)F)c3)o2)CCO1 (stereo not given),22.9&-2.3,9.4&-1.6
Cc1nc(CN(C)Cc2nc(C(c3ccccc3)c3ccccc3)no2)cs1,-1.8,-5.6
O=C(c1ccco1)N1CCN(CC(OCc2ccc(C(F)(F)F)cc2)c2ccc(Cl)cc2)CC1 (stereo not given),-3.4,2.2
Cc1ccc2nc(COC(=O)Cc3ccsc3)cc(=O)n2c1,-1.0,-7.6
O=C(c1ccc(SCc2ccccc2)nc1)N1CCc2ccccc2C1,14.1,11.0
Cc1cccc(OCCN2CCCN(C(=O)c3ccco3)CC2)c1C,-9.4,-10.0
CCSc1ccccc1C(=O)N1CCN(c2ncnc3c2nnn3C)CC1,0.9,8.2
OCCN(Cc1ccccc1)Cc1cn[nH]c1-c1ccc(F)cc1F,-0.5,-3.8
CSc1ccccc1NC(=O)CCN1CCN(c2ccccn2)CC1,0.3,9.3
COc1ccc(CCC(=O)Nc2c(C)nc3cc(C)ccn3c2=O)cc1,-4.5,-4.3
Cc1cc(NCC2CCCO2)n2nc(C)c(-c3ccccc3Cl)c2n1 (stereo not given),1.2,8.8
N#CCN1C(=O)NC2(CCCc3sccc32)C1=O (stereo not given),2.1,0.8
COC(=O)c1ccc2c(=O)n(CC(C)C)c(SCc3ncc(-c4ccc(F)cc4)o3)nc2c1,10.8,3.7
Cc1cccc(-c2nc3ccc(C)cn3c2NC(C)(C)C)c1,-5.8&23.8,-3.3&24.2
COc1ccc(CC(=O)N2CCC(c3nc(-c4ccccc4Cl)no3)CC2)cc1,-3.3,-5.4
COc1cccc(C(=O)N(Cc2csc(COc3cc(C)cc(C)c3)n2)C2CC2)c1,-5.9,-5.0
COc1ccc(S[C@@H]2C[C@@H](C(=O)N(C)Cc3nonc3C)N(Cc3ccc(O)cc3)C2)cc1,-1.3,-2.3
C=C1C(C)(C)[C@H]2CC[C@]1(C(=O)N(C)CCCc1cnn(C)c1)C2,0.6,-3.4
CN1C(=O)C2(CCCN(C(=O)CCc3csc(N)n3)C2)c2ccccc21 (stereo not given),-0.6,-1.1
O=S(=O)(c1ccc(Br)c2ccccc12)N1CCCC1,0.3,-0.5
O=C(CN1CCc2sccc2C1c1ccc(Cl)cc1)N1CCN(C(=O)c2ccc3c(c2)OCO3)CC1 (stereo not given),9.3,-3.5
CC(=O)N1N=C(c2ccc(Br)cc2)CC1c1nc2ccccc2[nH]1 (stereo not given),2.8,3.0
CC(=O)c1cc(C(=O)N2CCc3c(cc(-c4cccc5nc(C)ccc45)c(=O)n3CC3CC3)C2)cs1,17.7,4.4
CCOC(=O)NC(=O)COC(=O)[C@@H]1CCCN1C(=O)OC(C)(C)C,-4.1,0.8
CC(=O)Nc1nc(SCC(=O)Nc2nc(C)cs2)[nH]c(=O)c1NC(=O)c1ccccc1,-2.4,-3.1
O=C(NCC1CCCN(C(=O)OCc2ccccc2)C1)Nc1nncs1 (stereo not given),-0.2,-6.8
C=C1NO[N+]([O-])=C1COc1ccc(C=O)cc1OC,1.3,1.5
c1cc2nc(NC3CCC3)ccn2n1,3.1,0.5
O=C1NC2(CCN(C(=O)c3ccc4c(c3)OCO4)CC2)Nc2cccc(Cl)c21,34.8,43.5
Cc1cc(N(C)Cc2ccccc2)nc(SCc2cccc(C(=O)O)c2)n1,4.7,14.8
CC(Sc1nnc2n1CCCCC2)C(=O)N(C)C1CCS(=O)(=O)C1 (stereo not given),1.8,-1.9
C=CCN(CCC(=O)NC(N)=O)c1nc2c(s1)CCCC2,6.5,3.2
COc1ccc(-c2nc(N3CCN(c4ccccc4F)CC3)c3ccccc3n2)cc1,-7.6,3.8
Cc1nn(Cc2ccccc2Cl)c(C)c1[N+](=O)[O-],-4.9,-5.3
COC(=O)CSCc1nnc(-c2ccc(Br)o2)o1,2.6,0.8
Cc1ccc(C(C)NC(=O)COC(=O)CN(C)c2ncccn2)cc1C (stereo not given),9.6,0.1
COc1cccc(NC(=O)c2cc(-c3ccc(Cl)cc3)nc3ccccc23)c1,-0.6,-4.7
CCNC(=O)c1sc(-c2ccc(C(F)(F)F)cc2)nc1C,3.1,1.4
CCCCCCSc1s[nH]c(=O)c1C#N,4.5,-1.9
COc1ccc(OC)c(-c2nc3ccc(C)cn3c2NC(C)(C)CC(C)(C)C)c1,8.5,4.9
COc1cccc2c(SCC(=O)N3CCCC3)nccc12,-4.3,-6.5
O=C(CSc1nc2ccccc2s1)NNC(=O)Nc1ccc(Cl)c(Cl)c1,-8.3,-6.4
CCCCNC(=O)n1c(SC)nc2ccccc21,-0.8,-4.3
COC(C)(C)CC(C)NCc1nc(C)c2c(n1)CCCC2 (stereo not given),-0.1,-1.4
Cc1oc(C)c(S(N)(=O)=O)c1C(=O)Nc1ccc(C(C)C)cc1,-2.5,-3.4
c1ccc(NC2CCCN(C3CCSCC3)C2)cc1 (stereo not given),-2.5,-4.0
O=C(Cc1ccc(Cl)cc1Cl)Nc1ccc(NC(=O)C2CC2)cc1C(F)(F)F,2.4,3.1
CSCCNC(=O)CC1C(=O)NCCN1CC1CCCCC1 (stereo not given),4.2&0.7,-0.2&-0.8
CCN(Cc1ccccc1)C(=O)CN1C(=O)c2ccccc2C1=O,6.9,10.1
CC1CCc2sc3nc[nH]c(=O)c3c2C1 (stereo not given),0.7,-0.5
# Continued.
SMILES,NPYLR7 agonist,NPYLR7 agonist max-min
CCc1cnc(N2CC3ON=C(c4ccc(F)cc4)C3C2)nc1 (stereo not given),2.3,-0.5
CN1CCCC2(CC1)CCN(C(=O)CN1CCOC1=O)CC2,-0.9,-1.4
CCOC(=O)/C(=N\O)C1=NC2(CCCCC2)Cc2ccccc21,-13.0,-20.0
CC(C)C(=O)Nc1cccc(NC(=O)NCCc2ccncc2)c1,11.4,9.3
Cn1ccsc1=NC(=O)c1ccc(C2SCCS2)cc1,2.7,-1.4

# 7 successive entries out of the list so far:
SMILES,NPYLR7 agonist,NPYLR7 agonist max-min
CCN(Cc1ccccc1)C(=O)CN1C(=O)c2ccccc2C1=O,6.9,10.1
CC1CCc2sc3nc[nH]c(=O)c3c2C1 (stereo not given),0.7,-0.5
CCc1cnc(N2CC3ON=C(c4ccc(F)cc4)C3C2)nc1 (stereo not given),2.3,-0.5
CN1CCCC2(CC1)CCN(C(=O)CN1CCOC1=O)CC2,-0.9,-1.4
CCOC(=O)/C(=N\O)C1=NC2(CCCCC2)Cc2ccccc21,-13.0,-20.0
CC(C)C(=O)Nc1cccc(NC(=O)NCCc2ccncc2)c1,11.4,9.3
Cn1ccsc1=NC(=O)c1ccc(C2SCCS2)cc1,2.7,-1.4

# A portion of the library (hit frequency here may not be typical).
